RGS16-Gao – regulators of human RGS16-Galphao interaction; binding response (% of control), % at 10 µM; bead-based flow cytometry RGS16-Galphao binding, fluorescence; actives lie on both sides; 220,000 compounds, 0.38% hits;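 active = below 25% or above 175%, edge rows of some plates excepted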;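 note: Galphao activated by GDP with aluminum fluoride before binding; 100% = wells without compound and 0% = beads without RGS; some results beyond the cut were filed as inactive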
Target sequence (O15492 whole entry, looked up): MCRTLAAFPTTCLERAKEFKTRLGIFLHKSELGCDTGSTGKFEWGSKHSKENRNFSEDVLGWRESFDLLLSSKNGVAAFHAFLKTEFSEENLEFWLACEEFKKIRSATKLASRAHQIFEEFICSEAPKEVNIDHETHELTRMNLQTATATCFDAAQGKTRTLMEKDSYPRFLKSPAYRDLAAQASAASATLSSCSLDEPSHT
Target sequence (P09471 whole entry, looked up): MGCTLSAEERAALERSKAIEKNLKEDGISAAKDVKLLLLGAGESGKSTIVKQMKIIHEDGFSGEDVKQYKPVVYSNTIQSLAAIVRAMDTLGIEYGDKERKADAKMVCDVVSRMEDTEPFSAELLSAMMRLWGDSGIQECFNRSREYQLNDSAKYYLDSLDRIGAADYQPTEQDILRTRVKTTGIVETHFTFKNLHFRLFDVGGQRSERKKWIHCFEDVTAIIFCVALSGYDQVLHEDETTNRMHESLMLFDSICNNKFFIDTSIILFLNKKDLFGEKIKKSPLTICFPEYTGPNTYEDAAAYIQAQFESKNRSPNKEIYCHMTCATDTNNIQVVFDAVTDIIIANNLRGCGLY
PKD1 inh – blocks activity of human protein kinase D1. inhibition, %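 (about 10 µM by stock and volumes)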. AID 797. 200,000 compounds, 0.056% hits. PKD1 kinase fluorescence polarization assay;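 active = inhibition of 50% or more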;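 note: controls were vehicle for no effect and a reference inhibitor for full effect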
GALR2 agonist – GALR2 (human) receptor agonism; O43603; GALR2-expressing cells, agonist activation read-out; activation, %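 (tested at 5 µM)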; AID 803; 140,000 compounds, 0.48% hits;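 active = above mean plus 3 SD of all compounds, about 5% in these data, not always enough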;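 note: 0% = vehicle buffer wells and 100% = reference agonist at full effect; tested in CHO reporter cells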
Target sequence (O43603 whole entry, looked up): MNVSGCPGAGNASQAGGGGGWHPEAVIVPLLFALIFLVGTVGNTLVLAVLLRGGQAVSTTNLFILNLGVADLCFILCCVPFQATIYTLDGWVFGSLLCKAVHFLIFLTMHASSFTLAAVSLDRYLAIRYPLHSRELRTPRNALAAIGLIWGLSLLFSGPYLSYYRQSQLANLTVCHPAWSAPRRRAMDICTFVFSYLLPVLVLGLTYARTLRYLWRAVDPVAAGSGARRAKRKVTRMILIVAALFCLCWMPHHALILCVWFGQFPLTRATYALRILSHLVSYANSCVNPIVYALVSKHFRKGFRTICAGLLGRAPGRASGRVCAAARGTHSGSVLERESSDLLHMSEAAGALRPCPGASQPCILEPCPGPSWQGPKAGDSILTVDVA
HSV replic up – increases HSV replication in cells. HSV replication augmentation in cells, fold increase. maximum fold increase. 220,000 compounds, 0.005% hits. AID 1956;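 active = peak rise of 1.5-fold or more in the series; inconclusive = self-fluorescent or not available for retest; tested in PC3 cells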;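 note: first round at 10 µM; read as green reporter fluorescence; hits show the peak of a series up to 25 µM; 1 = signal of infected wells without compound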
Insulin prom inh – TRM-6 insulin promoter activity inhibition | TRM-6 cells (human fetal islet line), insulin promoter-eGFP reporter, imaging; reporter expression induced with tamoxifen | inhibition, % at 2 µM | 130,000 compounds, 0.9% hits | AID 1273;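 active = inhibition above the mean plus 3 SD, with well images judged a real hit on visual review, cut at about 60% in these data, passing the limit was not always enough; inconclusive = inhibition over the cutoff but images rejected on review; inactive = inhibition not above the cutoff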
Insulin prom inh cell count – also measured in Insulin prom inh; calls as there; normalized cell count, %; measured here: cell count, toxicity; reference of the scale not given here;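 cells exposed to compound for 48 h; stained nuclei by imaging scaled within each plate; lower means fewer cells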
HSV replic up primary fold – recorded beside HSV replic up, whose call it bears; fold increase; compound at 10 µM; measured here: primary screen fold increase 10 uM; tested in PC3 cells;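 GFP signal in the first replicate; 1 = infected wells without compound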
* = called active by the depositor; i = inactive; ? = inconclusive; / = not tested or not shown.

nr	Molecule	RGS16-Gao	PKD1 inh	GALR2 agonist	HSV replic up	HSV replic up primary fold	Insulin prom inh	Insulin prom inh cell count
1	C/C(=N/Nc1nc(-c2ccc(Cl)cc2)cs1)c1cccs1	105	-5	-2.1	?	/	11	60
2	COc1ccccc1N(C(C)=O)C1SC(=O)N(c2ccccc2)C1=O (stereo not drawn)	98	6	-1.2	i	1	-75	109
3	O=C1CN(c2nc3ccccc3n3cnnc23)CC(=O)N1CCc1ccccc1	98	7	-1.6	i	0.57	/	/
4	COc1ccc(NS(=O)(=O)c2ccc(Cl)c(N)c2)cc1Br	99	-6	/	i	0.78	/	/
5	CCOc1c(Cl)cc(/C=N/NC(N)=S)cc1OC	41	-3	-1.4	i	1	-14	103
6	Cc1ccc(C(=O)NCc2ccco2)cc1S(=O)(=O)Nc1cccc(Cl)c1	98	-4	-2.8	i	0.78	-14	84
7	CCOC(=O)N1CCN(S(=O)(=O)c2ccc(OC)c(Cl)c2)CC1	111	1	-3.3	i	1	-38	93
8	c1ccc(CN2CCC(Nc3nc(-c4cccnc4)nc4ccccc34)CC2)cc1	91	4	/	i	0.59	/	/
9	O=C(CSc1ccccn1)N/N=C/c1ccccc1[N+](=O)[O-]	97	-5	0.7	i	1.2	/	/
10	COc1cccc(OCC(O)CN2CCC(CN3C(=O)c4cccc5cccc(c45)C3=O)CC2)c1 (stereo not drawn)	103	2	/	i	0.66	-38	123
11	CC(=O)c1c(COC(=O)c2ccc(Cl)cc2)nc2ccccc2[n+]1[O-]	100	/	/	i	0.97	/	/
12	O=C(CN1CCN(Cc2ccc(F)cc2)C1=O)NC1CCCC1	101	0	/	i	1	-456	108
13	CCC(=O)N=c1n(C)c2ccccc2n1CCOc1ccccc1	111	-7	-1.1	i	0.82	8	65
14	O=C(Cn1ncc2c(=O)oc3ccccc3c21)N1CCCc2ccccc21	70	1	-0.2	i	0.98	/	/
15	Cn1c(N)c(C(=O)COC(=O)c2ccccc2NCc2ccco2)c(=O)n(C)c1=O	102	-11	/	i	0.92	-40	49
16	CC(C)C(C(=O)Nc1ccc2c(c1)OCCO2)N1C(=O)c2ccccc2C1=O (stereo not drawn)	99	3	-3.3	i	0.94	46	125
17	Cc1cc(C)c(S(=O)(=O)N2CCOCC2)cc1C	102	-3	/	i	1.1	-5	89
18	COc1cc(-c2cc(N)n(S(=O)(=O)c3ccccc3)n2)cc(OC)c1OC	101	-1	-1.9	i	0.98	/	/
19	Cc1cc(NC(=O)c2ccc(S(=O)(=O)N3CCOCC3)cc2)no1	100	1	/	i	0.99	/	/
20	COc1cc2[nH]c(=S)nc(NC3CCCCCC3)c2cc1OC	104	3	/	i	0.99	-53	118
21	CCOc1cc2[nH]c(=O)n(CCCN3CCCC3=O)c(=O)c2cc1OCC	98	0	0.1	i	0.84	/	/
22	Cc1cccc(C(O)(C(=O)NNc2ccc3ccccc3n2)c2cccc(C)c2)c1	83	-3	-1.7	i	1.2	/	/
23	COc1cc(C(=O)N/N=C/c2ccsc2C)cc(OC)c1OC	100	-1	-2.6	i	0.68	/	/
24	COc1cc2ccccc2c2c1CCCC2=O	104	4	-1.5	i	0.92	6	75
25	O=C(NN1CCCCC1)c1cccc(COc2ccc(Cl)cc2)c1	109	-7	-1.5	i	0.82	-31	127

Later entries
nr	Molecule	RGS16-Gao	PKD1 inh	GALR2 agonist	HSV replic up	HSV replic up primary fold	Insulin prom inh	Insulin prom inh cell count
26	Nc1nc(Nc2ccccc2)nc(NCc2ccco2)c1[N+](=O)[O-]	107	18	0.3	i	0.79	-28	144
27	CCCCNC(=O)Cn1cnc2c(cnn2-c2ccc(C)c(C)c2)c1=O	103	11	-2.7	i	1.3	29	93
28	c1ccc(C2Nc3ccccc3Oc3ccccc32)cc1 (stereo not drawn)	90	-4	-1.6	i	1.1	10	98
29	CCc1cc2c(=O)[nH]c(N3CCCC3)nc2s1	96	-5	-1.2	i	0.99	40	210
30	Cc1c(/C(O)=C2/C(=O)C(=O)N(Cc3cccnc3)C2c2cccs2)cnn1-c1ccccc1 (stereo not drawn)	94	0	2.2	i	0.92	15	60
31	O=C(OCc1ccc(Cl)cc1)c1cccnc1Cl	102	2	/	i	0.94	-40	157
32	NC(=O)COC(=O)CSc1cccc2cccc(Cl)c12	98	-9	/	i	0.9	/	/
33	Cc1ccc(S(=O)(=O)CCC(=O)Nc2ccc3c(c2)OCO3)cc1	119	-3	-6.2	i	1	-34	155
34	O=C(O)CCNc1cc2ccccc2cc1C(=O)O	92	17	-1.3	i	1.1	15	71
35	O=C(Nc1ccc(Cl)cc1)N1CCc2ccccc2C1	104	-1	/	i	0.87	38	89
36	CCCOc1ccc(Cl)cc1CNc1ccccc1	97	0	/	i	1.2	/	/
37	CCOc1ccc(CC(=O)Nc2nccs2)cc1OCC	99	-2	/	i	1	/	/
38	CCOC(=O)Cn1c2ccccc2c2nc3ccccc3nc21	101	2	-1.5	i	0.94	/	/
39	COC(=O)c1ccccc1NC(=O)CSc1nnc(COc2cccc(OC)c2)n1C	99	0	0.7	i	1.3	-32	86
40	Cc1ccc(C)c(N2CCN(C(=O)c3csc(C)c3C)CC2)c1	90	-6	-0.2	i	1.1	-41	92
41	Cc1onc(-c2ccccc2Cl)c1C(=O)Oc1cccc2cccnc12	103	2	/	i	0.97	-19	93
42	O=C(Nc1cc(C(F)(F)F)ccc1N1CCOCC1)c1cncc(Br)c1	108	-8	0.1	i	0.8	4	73
43	Cc1cc(NC(=O)CSc2nc(-c3ccco3)cc(C(F)(F)F)n2)n(-c2ccccc2)n1	110	-15	0.3	i	0.65	30	143
44	O=C(c1ccco1)N1CCN(c2c([N+](=O)[O-])nn(-c3ccc(Cl)cc3)[n+]2[O-])CC1	102	4	/	i	1	-27	109
45	CCOC(=O)/C=C1\Nc2ccccc2SC1=O	108	-3	-4.1	i	0.9	-10	91
46	Cc1cccc(N2C(=O)CC(n3ccnc3)C2=O)c1C (stereo not drawn)	99	6	/	i	0.88	/	/
47	Cc1cc(NC(=O)CSc2nc(C(C)(C)C)nc3ccccc23)no1	107	-5	/	i	0.85	/	/
48	CC1(C)OC(=O)C(=CNc2ncccn2)C(=O)O1	102	-3	-0.6	i	0.9	0	101
49	COn1c(SCc2ccccc2)nc2ccccc2c1=O	96	-7	-1.1	i	0.83	-3	42
50	CCOc1cc(C2NC(=O)NC(C)=C2C(=O)OC(C)CC)cc(Br)c1O (stereo not drawn)	113	-3	-1.9	i	0.99	/	/

Part of the list above in order of number of heavy atoms, low to high.
nr	Molecule	RGS16-Gao	PKD1 inh	GALR2 agonist	HSV replic up	HSV replic up primary fold	Insulin prom inh	Insulin prom inh cell count
31	O=C(OCc1ccc(Cl)cc1)c1cccnc1Cl	102	2	/	i	0.94	-40	157
34	O=C(O)CCNc1cc2ccccc2cc1C(=O)O	92	17	-1.3	i	1.1	15	71
32	NC(=O)COC(=O)CSc1cccc2cccc(Cl)c12	98	-9	/	i	0.9	/	/
38	CCOC(=O)Cn1c2ccccc2c2nc3ccccc3nc21	101	2	-1.5	i	0.94	/	/

(continued)
nr	Molecule	RGS16-Gao	PKD1 inh	GALR2 agonist	HSV replic up	HSV replic up primary fold	Insulin prom inh	Insulin prom inh cell count
51	Cc1ccc(NC(=O)C2CCN(S(=O)(=O)c3ccccc3)CC2)cc1	102	-3	/	i	1.1	/	/
52	COc1cc(/C=N\NC(=O)c2ccc(C)nc2)ccc1OC(=O)c1ccco1	115	-6	-1.8	i	0.91	57	152
53	CC(=O)N1CCc2cc(C(=O)CN3CCN(c4ccccc4F)CC3)ccc21	107	-9	-2.9	i	0.97	/	/
54	O=C1CN2C(=N1)N(Cc1ccccc1)c1ccccc12	99	-4	-0.7	i	0.84	-47	196
55	Cc1cc(C(=O)Nc2nc(-c3ccccn3)cs2)ccc1[N+](=O)[O-]	97	1	/	i	1	/	/
56	O=C(CCn1c(=S)[nH]c2ccccc2c1=O)N1CCOCC1	99	-8	-1.4	i	0.83	/	/
57	O=C(C[n+]1cnn(CC(=O)c2ccc(Cl)cc2Cl)c1)c1ccc([N+](=O)[O-])cc1	32	8	-0.8	i	0.92	/	/
58	O=C(Nc1cccc(S(=O)(=O)N2CCOCC2)c1)C(c1ccccc1)N1CCCCC1 (stereo not drawn)	100	-5	/	i	1	69	52
59	S=C(NCc1ccc(Cl)cc1)NN1CCOCC1	110	-11	/	i	0.95	/	/
60	CCOC(=O)c1sc(NC(=S)NC(=O)c2cccc(Cl)c2)c(C(=O)OCC)c1C	104	-11	-1.7	i	1	-48	53
61	Cc1c(C2Nc3ccccc3NC3=C2C(=O)CC(C)(C)C3)cnn1C (stereo not drawn)	98	-12	-1.1	i	1.2	-147	106
62	COCCN=C1NN=C(c2cc(C)n(CC3CCCO3)c2C)CS1 (stereo not drawn)	98	3	/	i	1.3	6	110
63	Cc1ccc2[nH]c3c(NCCCN4CCCC4=O)ncnc3c2c1	113	6	-2.7	i	0.78	55	118
64	Cc1c(C=O)c(=O)n(-c2ccccc2)n1C	101	0	/	i	0.92	21	116
65	O=c1[nH]c(=O)n(CCc2ccc(F)cc2)c(O)c1C=NCc1ccc2c(c1)OCO2	101	-3	-2.5	i	0.92	0	101
66	O=C(N/N=C/C1CC=CCC1)c1ccc(O)cc1O (stereo not drawn)	69	-4	-0.5	i	0.96	/	/
67	C=CCN1CCN(C(c2cc(OC)ccc2OC)c2nnnn2CC2CCCO2)CC1 (stereo not drawn)	96	13	-0.3	i	0.85	/	/
68	CCCC(=O)Nc1ccc(C(=O)NCc2ccccn2)cc1	99	-3	/	i	0.88	/	/
69	COc1cc(/C=N/N(C)C)ccc1OC(=O)c1cccs1	102	-3	/	i	1.1	/	/
70	Fc1ccc(-c2noc(C3CCN(Cc4cccnc4)CC3)n2)cc1	105	0	-2.3	i	0.63	/	/
71	O=C(CS(=O)c1cccc(C(F)(F)F)c1)Nc1ccccc1Cl (stereo not drawn)	94	0	-1.6	i	0.79	-50	107
72	CC(=O)O/N=C/c1c(NCc2ccccc2)nc2c(C)cccn2c1=O	98	/	/	i	0.92	/	/
73	O=C(Nc1ccc(Cl)cc1)c1ccc(-n2cncn2)c([N+](=O)[O-])c1	100	4	-2.2	i	1	16	126
74	O=c1c2ccccc2nc2c3ccccc3c(NCc3cccnc3)nn12	96	-3	/	i	0.96	/	/
75	Cc1nc2ccccc2cc1C(=O)N/N=C/c1ccco1	93	-9	-0.7	i	0.99	-19	57

Limited to GALR2 agonist, Insulin prom inh and RGS16-Gao, for some of the entries so far:
item	SMILES	GALR2 agonist	Insulin prom inh	RGS16-Gao
55	Cc1cc(C(=O)Nc2nc(-c3ccccn3)cs2)ccc1[N+](=O)[O-]	/	/	97
62	COCCN=C1NN=C(c2cc(C)n(CC3CCCO3)c2C)CS1 (stereo not drawn)	/	6	98
67	C=CCN1CCN(C(c2cc(OC)ccc2OC)c2nnnn2CC2CCCO2)CC1 (stereo not drawn)	-0.3	/	96

(cont.)
nr	Molecule	RGS16-Gao	PKD1 inh	GALR2 agonist	HSV replic up	HSV replic up primary fold	Insulin prom inh	Insulin prom inh cell count
76	COc1ccc2[nH]c(C)c(CCNC(=S)Nc3ccc(F)cc3)c2c1	104	-3	/	i	1	24	86
77	O=C(N/N=C\c1cccc(Cl)c1)c1ccc(Cn2cccn2)o1	98	21	-1.2	i	0.97	31	111
78	CC(Nn1cnnc1)c1cc(Cl)ccc1O (stereo not drawn)	111	-7	/	i	0.87	/	/
79	O=C(Nc1cccc(-c2nc3cccnc3s2)c1)c1cccnc1Cl	85	/	/	i	1	/	/
80	CCN1CCN(CCCNC(=O)C2CCCN(c3nnc(-n4cccc4)s3)C2)CC1 (stereo not drawn)	102	-6	-1.6	i	0.93	/	/
81	CCc1ccc(NC(=O)c2ccc3c(c2)C(=O)N(CCOC)C3Nc2ccc(CC)cc2)cc1 (stereo not drawn)	104	-9	2.9	i	1.1	0	59
82	COCCNc1cc(NCCOC)c([N+](=O)[O-])cc1[N+](=O)[O-]	108	-3	-0.4	i	0.95	-22	82
83	N/C(=N\c1nc(CSc2nc3ccccc3s2)cc(=O)[nH]1)Nc1ccc(F)cc1	101	/	/	i	0.75	/	/
84	CN(C)S(=O)(=O)c1ccc(NC(=S)NC(=O)c2cccs2)cc1	102	4	/	i	1.2	/	/
85	CCOc1ccc(N(Cc2cc3ccc(C)cc3[nH]c2=O)S(C)(=O)=O)cc1	99	6	-0.7	i	1	-21	79
86	CN(CCNC(=O)Cn1c(=O)sc2ccccc21)Cc1ccccc1	123	-16	/	i	0.92	/	/
87	CCCn1nnc2sc3c(c2c1=O)CCC(C)C3 (stereo not drawn)	103	-2	-2.5	i	0.91	37	73
88	CCOC(=O)C1CCCN(C(=O)C2CCN(S(=O)(=O)N3CCC4(CC3)OCCO4)CC2)C1 (stereo not drawn)	98	-8	-2.6	i	0.9	16	84
89	O=C(CNCc1ccco1)Nc1ccccc1-n1cccc1	101	-4	-1.6	i	0.88	-14	89

Screens from PubChem BioAssay.
